# Compound activity: PubChem, National Center for Advancing Translational Sciences (NCATS)
# VDR inh: Inhibitors of the vitamin D receptor (VDR): qHTS; VDR-SRC2-3 peptide fluorescence polarization, 2 h; Potency, µM, for the others: max response, negative = inhibition, most hits filed as inhibitors; 0.93% of 400,000 active; AID 504847, 2011; active means well fitted inhibition curve with a large enough effect; inconclusive means small, poorly fitted or top-dose-only effect, or another doubt; inactive means no such curve, though single readings can be large or run the other way; further: series mostly up to about 120 µM
# Target sequence (P11473 whole entry, looked up): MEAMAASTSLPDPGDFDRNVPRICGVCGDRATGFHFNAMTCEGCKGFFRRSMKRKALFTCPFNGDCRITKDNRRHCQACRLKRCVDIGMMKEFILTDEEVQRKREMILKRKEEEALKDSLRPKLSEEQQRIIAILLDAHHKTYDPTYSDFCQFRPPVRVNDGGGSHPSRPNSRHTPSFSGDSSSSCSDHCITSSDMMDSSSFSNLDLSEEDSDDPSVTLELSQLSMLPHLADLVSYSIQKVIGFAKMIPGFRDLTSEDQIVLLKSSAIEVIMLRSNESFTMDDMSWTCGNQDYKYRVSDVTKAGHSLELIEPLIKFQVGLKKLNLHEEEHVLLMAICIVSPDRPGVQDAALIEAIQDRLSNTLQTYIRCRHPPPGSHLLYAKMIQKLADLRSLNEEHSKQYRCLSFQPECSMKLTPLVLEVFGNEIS
#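 Fluorescence polarization assay measuring small-molecule disruption of VDR binding to the coregulator peptide SRC2-3. Compounds were pin-transferred (23 nl) into the reagent mix and incubated 2 h at room temperature before reading.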
# * hit, by the source's call; ? = inconclusive; [ ] = dose if it differs, or a comment. On the % scale 0 is the no-effect control and ±100 the full control effect; potency means the concentration at half of the fitted maximal effect. Not all compounds are listed. The share of hits here may be higher or lower than overall.
structure | VDR inh
CCOC(=O)C1=C(CN2CCN(C(=O)c3ccco3)CC2)NC(=O)NC1c1ccc(Cl)cc1 (configuration not stated) | ?
CCN(Cc1ccccc1)C(=O)CN1C(=O)CSc2ccc(S(=O)(=O)N(CC)CC)cc21 | 7%
CCOC(=O)CSc1nc2c(c(=O)[nH]c(=O)n2C)n1C/C=C(/C)Cl | ?
Cc1ccc(N=C2NC(=O)C(CO)(CO)S2)cc1 | -9%
CC1Cc2cc(/C(O)=C3/C(=O)C(=O)N(CCCn4ccnc4)C3c3cccc([N+](=O)[O-])c3)ccc2O1 (configuration not stated) | -1%
CCOC(=O)N1CCN(c2ncnc3scc(-c4ccccc4)c23)CC1 | 3%
CC(=O)Nc1cnn(Cc2ccc(Br)cc2)c1 | -7%
O=C(CN1C(=O)NC2(CCCCC2)C1=O)Nc1cc(C(F)(F)F)ccc1N1CCOCC1 | -1%
CCOC(=O)N1CCC(N2C(=O)c3ccc(C(=O)NCc4ccco4)cc3C2=O)CC1 | -21%
Cc1cc(C)c(C(N)=O)c(SCC(=O)c2cc(C)n(-c3cc(C)on3)c2C)n1 | -12%
Nc1cc(C(=O)c2ccccc2)ccc1[N+](=O)[O-] | -9%
COc1ccc(CN2CC(C(=O)NCCCOC(C)C)CC2=O)cc1 (configuration not stated) | 15%
Cn1c(=O)cc(C(=O)N/N=C/c2ccc(Cl)cc2)[nH]c1=O | 29%
CCOC(=O)c1ccccc1NC(=O)COC | ?
CCOc1ccc(NC(=O)C2CC(=O)N(CC)C(=Nc3ccc4c(c3)OCO4)S2)cc1 (configuration not stated) | 12%
Cc1ccc(Nc2nc(N)nc(CSc3nccn3C)n2)c(C)c1 | -8%
COc1ccc(-c2nnc(SCC(=O)NC3CC3)o2)cc1 | 2%
N#Cc1ccc(OCc2noc(-c3ccsc3)n2)cc1 | -5%
O=C(NNC1CC(=O)N(c2cccc(Cl)c2)C1=O)c1cccs1 (configuration not stated) | -11%
C#CC[N+](C)(C)CCCCCCCCC | -17%
CCc1cc(=O)oc2cc(O[C@@H]3O[C@H](CO)[C@@H](O)[C@H](O)[C@H]3O)c(Cl)cc12 | 20%
CCOC(=O)c1c(S(=O)(=O)NCC(=O)Nc2cccc(C)c2C)c(C)n(C)c1C | -1%
C=CCN1C(=O)C(CC(=O)NCC)SC1=Nc1ccccc1CC (configuration not stated) | 12%
COc1ccc(O)c(C(=O)c2cnc3c(c2)CN(C)C(=O)N3)c1 | -20%
Cc1ccc(NC(=O)CSc2nnc(-c3cc4occc4n3C)n2-c2ccccc2C)c(C)c1 | -4%
O=C1/C(=C/c2cccs2)COc2ccccc21 | ?
Cn1c(C(=O)N2CCC(C(=O)N3CCN(c4ccccc4)CC3)CC2)cc2sccc21 | 4%
COc1ccc([N+](=O)[O-])cc1NC(=O)Cc1ccc(C)cc1 | -10%
C/C(=N\NC(=S)NCc1ccccc1)c1ccc(C#N)cc1 | -3%
CCOC(=O)C1(Cc2ccc(OC)cc2)CCN(C(=O)Cn2cnnn2)CC1 | -9%
COCC(C)n1c(SCc2ccc(C(=O)OC)o2)nc2ccccc2c1=O (configuration not stated) | 1%
O=C(Nc1cc(Cl)ccc1-n1cncn1)c1cccc(S(=O)(=O)N2CCOCC2)c1 | -6%
CON(c1nc(Cl)nc(N(C)C)n1)S(=O)(=O)c1ccc(C)cc1 | -23%
CCN1C(=O)[C@@H]2[C@@H](c3ccc(SC4CCCCC4)c(OC)c3)N3CCC[C@@]3(C(=O)OC)[C@@H]2C1=O | -4%
Nc1nc(Cl)cc(N2CCOCC2)n1 | 3%
CSCCC(NC(N)=O)C(=O)NCC1CCCCC1 (configuration not stated) | -7%
CCCc1nc(SCc2cc(=O)c3ccc(C)c(C)c3[nH]2)n[nH]1 | 4%
CCOC(=O)C1CCCN(C(=O)CSc2ccc(NC(C)=O)cc2)C1 (configuration not stated) | -25%
COc1cc(/C=C/C(=O)OCC(=O)N2CCN(S(=O)(=O)c3ccc(C)cc3C)CC2)ccc1OC(F)F | -21%
C#CC(CO)N(CCN(Cc1ccccc1)C(C#C)CO)Cc1ccccc1 (configuration not stated) | -10%
CCOc1ccc(CC(=O)NNC(=O)NC2CCCCC2)cc1 | -4%
CCCN(CCC)C1=CC(=[N+]2CCCC2)CC(C)(C)C1 | -1%
Cn1c2ccccc2c2c(=O)oc3ccccc3c21 | 10%
NC(=S)Nc1ncc(C(F)(F)F)cc1Cl | -10%
CCC(=O)c1cc(F)c(N2CCN(S(=O)(=O)c3ccccc3)CC2)cc1C | 3%
Cc1cccc(OCC(=O)OCC(=O)NCC2CCCO2)c1C (configuration not stated) | -4%
O=C1Nc2c(c(=O)[nH]c(=O)n2-c2ccccc2F)C(C(F)(F)F)(C(F)(F)F)N1 | 3%
Cn1c(N)c(C(=O)COC(=O)COc2ccc(Cl)cc2Cl)c(=O)n(C)c1=O | -6%
CC(C)(C)c1cc(NS(=O)(=O)c2ccc(Br)s2)no1 | 11%
CC[C@]1(C(=O)OC)[C@H]2C(=O)N(C)C(=O)[C@H]2[C@H]2CN(C)C(=NC)N21 | -1%
Cc1cc(C)cc(N(C(=O)CNC(=O)c2ccco2)C(C(=O)NC2CCCC2)c2cccnc2)c1 (configuration not stated) | -15%
CCN(c1ccc(F)cc1)S(=O)(=O)c1ccc2[nH]cc(C(=O)NCCCN3CCOCC3)c(=O)c2c1 | -6%
CC1CCCCN1CCCNc1c(C=O)c(=O)[nH]c2ccccc12 (configuration not stated) | -15%
Cc1ccc(C2CCN(C(=O)Nc3ccc(Cl)cc3)C2)cc1 (configuration not stated) | 11%
CCOC(=O)/C(C(N)=NC(C)C)=C(\O)c1ccccc1 | 19%
O=S(=O)(c1ccc(F)cc1)N(Cc1nc(-c2ccccc2)no1)C1CCCCC1 | -8%
Cc1ccc(-c2ccc([C@H]3[C@H]4C=CC[C@@H](C)[C@@H]4C(=O)N3Cc3ccccc3)c(F)c2)cc1 | -19%
Cc1ccccc1-c1nc(CN2CCC(C(=O)NCCN3CCOCC3)CC2)c(C)o1 | -2%
Cc1ccc(C(=O)NCC(=O)OC(C)C(=O)Nc2ccc(N(C)C)cc2)cc1C (configuration not stated) | 6%
Cc1cccc(C(=O)OCC(=O)NCC2COc3ccccc3O2)c1 (configuration not stated) | -7%

# The results go on:
structure | VDR inh
COc1ccc(N2C(=O)CC(NNC(=O)c3ccc(Br)s3)C2=O)cc1 (configuration not stated) | 0%
COC(=O)N1CCN(c2ccc(C(C)=O)cc2)CC1 | 4%
O=C(CCn1c(=S)oc2ccccc21)N1CCCCC1 | 0%
CNC(=O)c1[nH]cnc1C(=O)N[C@@H](CC(C)C)C(=O)OCc1ccccc1 | -18%
O=C(Nc1cccc2c1CCCC2)C1CCCN(S(=O)(=O)c2cccc3nonc23)C1 (configuration not stated) | 28%
COc1ccc(N2CCN(C(=O)C3CCN(S(=O)(=O)c4cccs4)CC3)CC2)cc1 | ?
COc1ccc(C)cc1Nc1n[n+](-c2ccccc2)c(-c2cc([N+](=O)[O-])cc(OC)c2O)s1 | -18%
CC(C)(C)CN1C(N)=NC[C@H]1Cc1ccc(O)cc1 | -4%
O=C(COC(=O)Cc1cccc(F)c1)NCCc1ccccc1 | -16%
Cc1ccc(N2CCN(C(=O)CN3C(=O)c4ccccc4C3=O)CC2)cc1 | -2%
Cc1onc(-c2ccccc2)c1C(=O)Nc1sccc1C#N | 39%[activator]
COc1cc2c(cc1OC)CN(C(=O)CC1CC3CCC1C3)CC2 (configuration not stated) | 8%
O=c1cnc2cnc(Oc3cccc(Cl)c3)nc2n1Cc1ccc(F)cc1 | ?
Nc1c(Cl)ncnc1N/N=C/c1ccnc2ccccc12 | 14%
COc1ccc(N(C(=O)c2snc(C(N)=O)c2N)C(C(=O)NC2CCCC2)c2ccc3ncccc3c2)cc1 (configuration not stated) | -8%
CCOC(=O)c1c(CN(CC)CC)n(C)c2cc(Br)c(O)cc12 | 2%
O=C1Nc2ccccc2C12OCCCO2 | 10%
CCCc1ccc(OCCNC(=O)c2ccccc2Br)cc1 | -9%
O=C(c1cnccn1)N1CCC2(CC1)CN(c1ncccn1)C2 | 7%
C=CCNC(=O)CN1C(=O)c2cccc3cccc1c23 | -7%

# Compounds above that have a tert-butyl group, in the order listed:
structure | VDR inh
CC(C)(C)c1cc(NS(=O)(=O)c2ccc(Br)s2)no1 | 11%
CC(C)(C)CN1C(N)=NC[C@H]1Cc1ccc(O)cc1 | -4%

# Returning to the listing; the six compounds before the break are reprinted first.
structure | VDR inh
COc1ccc(N(C(=O)c2snc(C(N)=O)c2N)C(C(=O)NC2CCCC2)c2ccc3ncccc3c2)cc1 (configuration not stated) | -8%
CCOC(=O)c1c(CN(CC)CC)n(C)c2cc(Br)c(O)cc12 | 2%
O=C1Nc2ccccc2C12OCCCO2 | 10%
CCCc1ccc(OCCNC(=O)c2ccccc2Br)cc1 | -9%
O=C(c1cnccn1)N1CCC2(CC1)CN(c1ncccn1)C2 | 7%
C=CCNC(=O)CN1C(=O)c2cccc3cccc1c23 | -7%
CC(C)N(C(C)C)S(=O)(=O)c1ccc(NC(=O)c2cnccn2)cc1 | -14%
COc1cccc(NC(=S)/C(=C(\[O-])c2ccc(OC(F)F)cc2)[n+]2ccccc2)c1 | -12%
O=C(Nc1cccc(Cl)c1N1CCOCC1)c1ccc2c(c1)OCCO2 | -8%
COc1ccc(CCNC(=O)c2nnc(Cc3c(F)cccc3Cl)o2)cc1OC | 12%
COc1cc(O)c(C(=O)O)c(O)c1 | 19%
Cc1ccc(OCCCC(=O)NCc2ccco2)cc1 | 22%
COCc1[nH][nH]c(=O)c1C=Nc1ccc(OC(F)(F)F)cc1 | 1%
Cc1cccc2c1-c1sc(C(=O)NCc3ccc(Cl)cc3)cc1CO2 | -15%
COc1ccccc1N1CCN(C2CCCN(C(=O)CCN3CCCCO3)C2)CC1 (configuration not stated) | -16%
Cn1c(=O)n(C)c2cc([N+](=O)[O-])c(N3CCN(C(=O)C(C)(C)C)CC3)cc21 | -17%
N#Cc1c2ccc(O)cc2n2ccccc12 | -7%
CC1CCCCN1S(=O)(=O)c1cccc2nonc12 (configuration not stated) | -4%
O=C(NCC(=O)N1CCN(S(=O)(=O)c2ccccc2)CC1)c1ccc2ccccc2c1 | -20%
CC(=O)c1cccc(NS(=O)(=O)c2ccc(N/C=C\C(=O)c3ccc(F)cc3)cc2)c1 | -6%
COc1ccc2[nH]cc(C(=O)CN3CC(C)CC(C)C3)c2c1 (configuration not stated) | -1%
CCn1c(Cc2ccccc2)nnc1SCC(=O)Nc1ccccc1N1CCOCC1 | 1%
Cc1ccc(S(=O)(=O)N2CCOCC2)cc1NC(=O)CN1C(=O)CN(C)C1=O | -8%
O=C(Nc1ccccc1N1CCN(C(=O)c2ccccc2)CC1)c1cc2ccccc2o1 | 3%
O=C(NCc1ccccc1)c1ccc(=O)oc1 | 7%
Cc1cc(N2CCOCC2)nc2ccc(NC(=O)CCC(=O)N3CCN(c4ccccc4F)CC3)cc12 | -11%
COc1ccccc1C(=O)NNC(=S)NC(=O)c1sc2ccccc2c1Cl | 6%
O=C1C2C3C=CC(C2C(=O)N1CCCO)C1C2C(=O)N(CCCO)C(=O)C2C31 (configuration not stated) | 7%
O=C(Cn1c(=O)oc2cc(S(=O)(=O)N3CCOCC3)ccc21)N1CCc2ccccc2C1 | 13%
COc1cccc(/C=N/NC(=O)CN2CC(c3ccccc3)CC2=O)c1O (configuration not stated) | -13%
c1ccc(COc2ccc(OCCN3CCCCC3)cc2)cc1 | 14%
COc1ccc(-c2nc3cc(NC(=O)CSc4ccc(C)cc4)ccc3o2)cc1 | 12%
O=C(COc1ccccc1F)Nc1ccc(C(=O)OCc2cc(=O)n3nc(C4CC4)sc3n2)cc1 | 12%
CC(=O)n1nc(-c2ccccc2)cc1-c1ccccc1 | 8%
C=CCN=c1sc(C(=O)OC)cc(=O)n1CC=C | ?
CC1CCCN(C(=O)c2cc3c(Cl)nc4ccccc4c3s2)C1 (configuration not stated) | -11%
O=C(CNC(=S)N(Cc1ccccc1Cl)C1CCCC1)NCCCN1CCOCC1 | 10%
O=C(c1ccc(Cl)c([N+](=O)[O-])c1)N(Cc1ccc(Cl)cc1)C1CCS(=O)(=O)C1 (configuration not stated) | -29%
Cc1nc2ccc(C(=O)N3CCCC(CO)(Cc4ccc(F)cc4F)C3)cc2nc1C (configuration not stated) | 3%
CCN(CC)S(=O)(=O)c1ccc(OC)c(NC(=O)Cc2cccs2)c1 | 20%
CCN(CC)C(=O)c1csc(Nc2ccc(C)cc2)n1 | -4%
Cc1ccc(NC(=O)CCc2c(C)nc3ncnn3c2C)nc1 | 17%
COc1ccc(N=CC=C2OC(C)(C)C(C)(C)O2)cc1OC | -15%
S=c1nc(Cc2ccccc2)[nH]c2ccccc12 | -15%
CCOC(=O)N1CCN(c2c(NCCc3ccc(OC)c(OC)c3)c(=O)c2=O)CC1 | -3%
CC1=N/C(=C\c2ccc3c(c2)OCO3)C(=O)N1c1ccc(C(=O)O)cc1 | -7%
CCOC(=O)[C@H]1[C@H]2COc3ccccc3[C@@H]2N2C(=O)[C@@H](C)NC(=O)[C@@]12C | -11%
COc1ccc(N2C(=O)[C@@H]3[C@H](C2=O)[C@H]2C=CC=NN2[C@@H]3C(=O)Nc2ccc(Cl)cc2)cc1 | ?
NCC(=O)N1CCC(C(=O)N[C@@H](Cc2c[nH]c3ccccc23)C(=O)O)CC1 | 0%
Cc1c(Cl)cccc1NS(=O)(=O)c1ccc(-c2cnc(C3CC3)o2)cc1 | 6%
Cc1cc2c(NC(=O)Nc3ccc(C(F)(F)F)cc3)cccc2nn1 | -8%
